Rango complex inh – inhibitors of Rango-importin beta complex formation | Q14974 | Rango CFP/YFP FRET sensor + importin beta, 45 min | Potency, µM (highest dose often 92.2 µM), inactives show at the top dose inhibition of complex formation | 340,000 tested, 0.031% active | AID 540263; active = rising FRET ratio curve, often small or poorly fitted; inconclusive = mostly compound fluorescence or quenching in the first reads; inactive = flat curves in all reads;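 note: potency is the fitted concentration of half-maximal effect; 0% = DMSO wells and 100% = buffer wells lacking importin beta; nearly all actives have a fitted effect of over 15% in size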
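FRET biosensor Rango (snurportin 1 IBB between N-terminal EYFP and C-terminal Cerulean), 50 nM in PBS/1 mM DTT/0.02% Tween-20/0.1% BSA, preincubated 5 min RT with compound; 0.125 microM importin beta added, 45 min RT, CFP/YFP FRET ratio read.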
miR-21 FLuc – raises the signal of a miR-21 reporter; HeLa miR-21 FLuc reporter, luciferase, 48 h; Potency, µM (top dose mostly 38.3 µM), for the others: at the highest dose reporter change, positive = more light; 340,000 tested, under 10 active; active = well fitted rising curve with a large enough effect; inconclusive = small, poorly fitted or top-dose-only effect; inactive = no such curve, though single readings can be large or run the other way;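 note: % of control where 0% means no effect; miR-21 action dims this reporter so a rising signal means less miR-21 action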
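HeLa cells stably expressing CMV-driven firefly luciferase with a downstream miR-21 binding sequence, endogenously expressing miR-21, were treated with titrations (up to about 40uM final) for 48 hours at 37 degree Celsius. Luciferase luminescence was read after lysis.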
Rango release inh – inhibitors of RanGTP-induced Rango-importin beta complex dissociation. 340,000 tested, 0.071% active. Biochemical FRET Rango-importin beta, RanGTP-induced dissociation. Potency, µM (titrated, usually from 46.1 µM), for inactives: at the top dose activity change, negative = inhibition. O95149+P62826; active means falling FRET ratio curve, often poorly fitted, with flat reads before Ran was added; inconclusive means other falling curves, or compound fluorescence or quenching; inactive means flat or rising ratio curve;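 note: potency is the fitted concentration of half-maximal effect; % of control where 0% means no effect; nearly all actives have a fitted effect of over 45% in size; -100% = wells without RanGTP and RCC1; the record marks most hits as doubtful in a second field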
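Recombinant Rango FRET biosensor (EYFP–snurportin 1 IBB–cerulean CFP10) at 0.1 uM premixed with 0.25 uM importin beta in PBS, 1 mM DTT, 0.02% Tween-20, 0.1% BSA. Compound added 5 min; RanGTP-RCC1 (0.6 uM Ran, 2 mM GTP, 0.2 uM RCC1) then triggers release, read at 45 min.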
GLA inh pH 4.5 – blocks human alpha-galactosidase A at pH 4.5; purified enzyme, 4-MU-alpha-Gal fluorescence, pH 4.5; activity change, negative = inhibition, % at 105 µM; 230,000 tested, under 10 active; AID 1467; inconclusive = small, poorly fitted or top-dose-only inhibition, or a rising curve; inactive = flat fitted curve, though single readings scatter; no compound was filed as active;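 note: 0% = full activity with enzyme and -100% = basal without enzyme; dose as in the result columns while the protocol names 77 µM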
Target sequence (P06280 whole entry, looked up): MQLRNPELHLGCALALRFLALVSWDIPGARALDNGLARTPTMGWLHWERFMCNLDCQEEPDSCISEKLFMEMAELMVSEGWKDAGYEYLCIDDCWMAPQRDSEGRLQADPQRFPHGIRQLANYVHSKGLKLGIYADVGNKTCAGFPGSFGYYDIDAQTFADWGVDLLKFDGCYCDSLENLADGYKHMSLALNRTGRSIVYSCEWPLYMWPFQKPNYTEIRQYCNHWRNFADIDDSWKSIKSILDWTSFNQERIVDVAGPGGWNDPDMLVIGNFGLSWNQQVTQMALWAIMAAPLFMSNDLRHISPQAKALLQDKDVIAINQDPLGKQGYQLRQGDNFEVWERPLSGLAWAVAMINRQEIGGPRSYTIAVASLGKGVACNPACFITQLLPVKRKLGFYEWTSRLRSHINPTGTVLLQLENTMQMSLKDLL
Active calls of the source: *.

Cc1ccc(-c2cc(C(=O)Nc3c(C)n(C)n(-c4ccccc4)c3=O)no2)cc1 was read as Rango complex inh -4.6%, miR-21 FLuc 2%, Rango release inh 13% and GLA inh pH 4.5 -1.
`Nc1c(N=O)c(=O)[nH]c(=O)n1-c1ccccc1` gave Rango complex inh -0.6% and Rango release inh 1%.
`Cc1cc(C)cc(NC(=O)N(CCC#N)Cc2cccs2)c1` gave Rango complex inh -1.8%, miR-21 FLuc -6%, Rango release inh 1% and GLA inh pH 4.5 0.
For COc1ccc(-n2c(C)cc(-c3csc(NC(=O)c4ccc(S(=O)(=O)N(C)C)cc4)n3)c2C)cc1 the results were Rango complex inh -0.1%, miR-21 FLuc -1%, Rango release inh -11% and GLA inh pH 4.5 1.
For O=C(CN(c1cccc(Br)c1)S(=O)(=O)c1ccccc1)N/N=C/c1cc([N+](=O)[O-])ccc1O the results were Rango complex inh -2.2% and Rango release inh -26%.
NC(N)=Nc1ccc(N=C(N)N)cc1 was read as Rango complex inh -1.6%, miR-21 FLuc 0%, Rango release inh -8% and GLA inh pH 4.5 4.
CCn1cc(C(=O)N[C@@H](C)C(=O)NCCCn2ccnc2)c(=O)c2cc3c(cc21)OCO3 was read as Rango complex inh -2.3%, miR-21 FLuc -1% and Rango release inh -9%.
COc1ccc(OC)c(NC(=O)CCNC(=O)c2ccco2)c1 was read as Rango complex inh -2.5%, miR-21 FLuc -3% and Rango release inh -9%.
For COc1cccc(C(=O)CC(=O)C(=O)Nc2cc(Cl)c(OC)cc2OC)c1 the results were Rango complex inh 4.0%, miR-21 FLuc -1%, Rango release inh 0% and GLA inh pH 4.5 -4.
`COc1ccc(-c2oc(=O)c3cc(OC)c(OC)cc3c2C#CC2(O)CCCCC2)cc1` gave Rango complex inh inconclusive and Rango release inh 13%.

In the list so far, these have a halogen.
For O=C(CN(c1cccc(Br)c1)S(=O)(=O)c1ccccc1)N/N=C/c1cc([N+](=O)[O-])ccc1O the results were Rango complex inh -2.2% and Rango release inh -26%.
For COc1cccc(C(=O)CC(=O)C(=O)Nc2cc(Cl)c(OC)cc2OC)c1 the results were Rango complex inh 4.0%, miR-21 FLuc -1%, Rango release inh 0% and GLA inh pH 4.5 -4.

Next records
Screening CC1CCc2c(sc3nc(CN4CCN(S(=O)(=O)c5ccccc5[N+](=O)[O-])CC4)[nH]c(=O)c23)C1 (configuration not stated) returned Rango complex inh -3.7%, miR-21 FLuc 0%, Rango release inh 13% and GLA inh pH 4.5 -22.
Screening Cc1ccc(NC(=O)C2CCN(C(=O)NCc3ccccc3)CC2)cc1C returned Rango complex inh inconclusive, miR-21 FLuc 5% and Rango release inh -6%.
CCOc1ccc(S(=O)(=O)N2CCC(C(=O)NCCc3ccccc3)CC2)cc1 was read as Rango complex inh 0.8%, miR-21 FLuc 0% and Rango release inh 4%.
`O=[N+]([O-])c1c(O)c(Cl)cc(Cl)c1Cl` (tested in a mixture with another compound) gave Rango complex inh -0.5% and Rango release inh 4%.
For CN(C)S(=O)(=O)N1CCN(C(=O)c2cccc(Br)c2)CC1 the results were Rango complex inh 2.7%, miR-21 FLuc -3%, Rango release inh 4% and GLA inh pH 4.5 2.
COc1ccc(-n2c(C)nc3c(cnn3-c3ccc(Cl)cc3)c2=O)cc1 was read as Rango complex inh 0.0%, miR-21 FLuc -2%, Rango release inh 3% and GLA inh pH 4.5 -10.
For COc1ccc(N2CC(C(=O)N/N=C/c3cccs3)CC2=O)cc1 (configuration not stated) the results were Rango complex inh -1.1%, miR-21 FLuc -8%, Rango release inh 9% and GLA inh pH 4.5 3.
CC(C)OCC1CC(CC(=O)NC(=S)Nc2cccc([N+](=O)[O-])c2)C(=O)O1 (configuration not stated) was read as Rango complex inh 5.1%, miR-21 FLuc 1%, Rango release inh 32% and GLA inh pH 4.5 2.
For CC(C)CCNC(=O)Cn1c(NCCC(C)C)nc2c1c(=O)n(C)c(=O)n2C the results were Rango complex inh -5.1% and Rango release inh 4%.
C=CCOc1ccccc1CN1CCCN(C)CC1 was read as Rango complex inh 1.0%, miR-21 FLuc -5% and Rango release inh 2%.
For O=C(Nc1ccccc1C(F)(F)F)c1cc(-c2ccc(O)cc2)on1 the results were Rango complex inh 0.5%, miR-21 FLuc -32%, Rango release inh -7% and GLA inh pH 4.5 -6.
Screening COc1ccccc1Nc1nc(N)nc(CN2CCN(Cc3ccccc3)CC2)n1 returned Rango complex inh -0.2%, miR-21 FLuc -8%, Rango release inh 3% and GLA inh pH 4.5 6.
`CCn1cc(C(=O)N(CCC(C)C)c2c(N)n(Cc3ccccc3)c(=O)[nH]c2=O)c(=O)c2ccc(C)nc21` gave Rango complex inh 0.0%, miR-21 FLuc 0%, Rango release inh 10% and GLA inh pH 4.5 0.
O=c1[nH]c(/C=C/c2ccccc2Cl)c([N+](=O)[O-])c(=O)[nH]1 was read as Rango complex inh -1.0%, miR-21 FLuc -2% and Rango release inh 6%.
For O=C(NCc1ccccc1)C(=O)NCC1COc2ccccc2O1 (configuration not stated) the results were Rango complex inh -2.1%, miR-21 FLuc 10%, Rango release inh 5% and GLA inh pH 4.5 -3.
Screening Cc1ccc(S(=O)(=O)N2CCN(CC(=O)Nc3ccc(N4CCOCC4)cc3)CC2)cc1C returned Rango complex inh 2.2%, miR-21 FLuc -10%, Rango release inh 14% and GLA inh pH 4.5 -11.
COc1ccc(N2C(=O)C3CCCN3C2=S)cc1 (configuration not stated) was read as Rango complex inh -2.3%, miR-21 FLuc -3% and Rango release inh 4%.
Screening COc1ccc(C2(c3ccc(OC)cc3)NC(=O)N(CC(=O)Nc3cc(C)on3)C2=O)cc1 returned Rango complex inh 0.2% and Rango release inh 22%.
For CC(C)(C)c1ccc(S(=O)(=O)N2CCC(CO)(CC3CCCCO3)CC2)cc1 (configuration not stated) the results were Rango complex inh -0.6%, miR-21 FLuc 0%, Rango release inh 4% and GLA inh pH 4.5 -6.
N/C(Cc1ccc([N+](=O)[O-])cc1)=N\OC(=O)CC1CCCCC1 was read as Rango complex inh -2.1%, miR-21 FLuc -6%, Rango release inh 12% and GLA inh pH 4.5 1.
For O=C(CSc1ccc2nnc(-c3cccnc3)n2n1)Nc1ccccc1 the results were Rango complex inh 3.6%, miR-21 FLuc -5% and Rango release inh 3%.
Screening CC(C)NC(=O)CSc1nc(N)c(NC(=O)c2ccccc2F)c(=O)[nH]1 returned Rango complex inh 1.1%, miR-21 FLuc 0%, Rango release inh 10% and GLA inh pH 4.5 8.
CCCn1c(N)c(N(CCOC)C(=O)c2ccc(N(C)S(=O)(=O)c3ccc(C)cc3)cc2)c(=O)[nH]c1=O was read as Rango complex inh 0.9% and Rango release inh 16%.
Screening O=C(Nc1ccc(S(=O)(=O)N2CCCC2)cc1)C1CC(=O)N(CCc2ccc(F)cc2)C1 (configuration not stated) returned Rango complex inh 0.5% and Rango release inh 18%.
CCN(CC)c1ccc(CN(C(=O)c2cccs2)C2CCS(=O)(=O)C2)cc1 (configuration not stated) was read as Rango complex inh 0.2%, miR-21 FLuc -7% and Rango release inh -6%.
For Cc1ccc(NC(=O)CSc2nnc(C)c(=O)[nH]2)cc1C the results were Rango complex inh -0.7%, miR-21 FLuc -1%, Rango release inh 24% and GLA inh pH 4.5 -1.
`Cn1c(O)c(C2=c3ccccc3=NC2=O)sc1=Nc1ccc(Cl)cc1` gave Rango complex inh -1.7%, miR-21 FLuc -15%, Rango release inh -1% and GLA inh pH 4.5 -4.
For CCN1CCN(c2cc(C)c3cc(NC(=S)NCc4cccs4)ccc3n2)CC1 the results were Rango complex inh 3.5%, miR-21 FLuc 3%, Rango release inh -7% and GLA inh pH 4.5 -1.
Cc1ccc(N(CC(=O)NC(C)C)C(=O)CCC(=O)Nc2nccs2)cc1 was read as Rango complex inh 0.6%, miR-21 FLuc -5% and Rango release inh 14%.
For CCOc1ccc(N(C)S(=O)(=O)c2cc(-c3cc(C)no3)ccc2C(C)C)cc1 the results were Rango complex inh 0.9%, miR-21 FLuc 15% and Rango release inh -2%.
`Cc1c(NC(=O)C2Cc3ccccc3CN2C(=O)c2ccco2)c(=O)n(-c2ccccc2)n1C` (configuration not stated) gave Rango complex inh -1.5%, miR-21 FLuc -8%, Rango release inh 32% and GLA inh pH 4.5 6.
Cc1cc(CNC(=O)c2cccc([N+](=O)[O-])c2C)c2ccccc2n1 was read as Rango complex inh 0.2%, miR-21 FLuc inconclusive, Rango release inh 6% and GLA inh pH 4.5 -18.
`CC1CCCCC1NC(=O)COc1ncnc2sccc12` (configuration not stated) gave Rango complex inh 4.0% and Rango release inh -20%.
COc1ccc2c(c1)CC/C(=C\c1ccc(C)o1)C2=O was read as Rango complex inh inconclusive, miR-21 FLuc -66%, Rango release inh inconclusive and GLA inh pH 4.5 0.
For CCOc1ccc(NC(=O)CN2C(=O)S/C(=C/c3cccn3C)C2=O)cc1 the results were Rango complex inh inconclusive, miR-21 FLuc 3%, Rango release inh inconclusive and GLA inh pH 4.5 -2.
`Nc1ccc(-c2nnc(-c3ccccc3)o2)cc1` gave Rango complex inh -2.1%, miR-21 FLuc -42% and Rango release inh -9%.
COC(=O)c1cc(S(=O)(=O)Nc2nn(C)c3ccccc23)oc1C was read as Rango complex inh 1.8%, miR-21 FLuc -8%, Rango release inh -4% and GLA inh pH 4.5 4.
For CC(C)N1CCc2c(sc(NC(=O)c3ccco3)c2C(N)=O)C1 the results were Rango complex inh inconclusive, miR-21 FLuc -7% and Rango release inh inconclusive.
Cc1ccc(CN(C(=O)COc2ccc([N+](=O)[O-])cc2)C2CCS(=O)(=O)C2)o1 (configuration not stated) was read as Rango complex inh -2.3%, miR-21 FLuc -2% and Rango release inh -4%.
Screening O=C(Nc1ncc2c(n1)-c1ccccc1OC2)c1ccc(F)cc1 returned Rango complex inh -1.9%, miR-21 FLuc -4%, Rango release inh 14% and GLA inh pH 4.5 8.
Cc1ccc(O)c(CNc2ccccn2)c1 was read as Rango complex inh 2.9%, miR-21 FLuc -38%, Rango release inh 4% and GLA inh pH 4.5 -4.
For COc1ccc(N/C=C/C(=O)c2ccccc2)cc1 the results were Rango complex inh inconclusive, miR-21 FLuc -19% and Rango release inh -21%.
`CC(=O)NC12CC3CC(C1)CC(C(=O)N(C)CC(=O)Nc1cccc(F)c1)(C3)C2` gave Rango complex inh -0.5% and Rango release inh -12%.
CN(Cc1ccccc1)C(=O)CCCn1c(=O)[nH]c2cc(Cl)ccc2c1=O was read as Rango complex inh -4.5%, miR-21 FLuc -1%, Rango release inh 14% and GLA inh pH 4.5 4.
Screening Cc1ccc(OCc2cn3cccnc3n2)cc1 returned Rango complex inh 0.2%, miR-21 FLuc -70%, Rango release inh 16% and GLA inh pH 4.5 11.
For CCC1(c2ccc(Cl)cc2)NC(=O)N(CC(=O)N2CCN(C(=O)c3ccco3)CC2)C1=O (configuration not stated) the results were Rango complex inh 4.8% and Rango release inh 16%.
Screening CCC1S/C(=N\S(=O)(=O)c2cccs2)N(C2CCCCC2)C1=O (configuration not stated) returned Rango complex inh 2.1%, miR-21 FLuc -3%, Rango release inh 1% and GLA inh pH 4.5 -8.
CCCOc1ccc(C(=O)NNC(=S)NC(=O)c2ccccc2)cc1 was read as Rango complex inh 0.5%, miR-21 FLuc 29% and Rango release inh -2%.
For CCOC(=O)/C(C#N)=C/c1ccc(N2CCCCC2)cc1 the results were Rango complex inh inconclusive, miR-21 FLuc -44%, Rango release inh inconclusive and GLA inh pH 4.5 9.
`N#Cc1ccc(N2CCOCC2)c([N+](=O)[O-])c1` gave Rango complex inh -4.0%, miR-21 FLuc -7%, Rango release inh 2% and GLA inh pH 4.5 -2.
Screening CC1=NNC(=O)C1CCC(=O)N/N=C(\C)c1ccccc1 (configuration not stated) returned Rango complex inh -1.1%, miR-21 FLuc -1%, Rango release inh 3% and GLA inh pH 4.5 6.
Screening CCCN1CCC(NC(=O)C2CCN(C(C)=O)CC2)CC1 returned Rango complex inh -2.5%, miR-21 FLuc -5% and Rango release inh 12%.
Brc1ccc(-c2nnc(-c3cccnc3)c3conc23)cc1 was read as Rango complex inh inconclusive and Rango release inh inconclusive.

Screening results (PubChem)

An excerpt; rates above refer to the full screens.
